From PubChem
NPYLR7 agonist: mosquito NPYLR7 agonism; activation, % at 10 µM; 270,000 compounds, 0.15% hits; HEK293T NPYLR7/Galpha15, GCaMP6s calcium fluorescence; in the data active = activation above about 40%;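 note: 0% = vehicle and 100% = reference agonist at the receptor; some compounds past the cut are filed as inactive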
NPYLR7 agonist max-min: also measured in NPYLR7 agonist; calls as there; activation, %; measured here: Max-Min RFU normalised activation; some inactives read as strong as hits;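 span of the calcium signal over five minutes; 0% = vehicle and 100% = native peptide agonist; compound fluorescence can raise it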
* = called active by the depositor. An excerpt, so the mix of outcomes need not match the whole.

SMILES,NPYLR7 agonist,NPYLR7 agonist max-min
COCCN(CC(=O)Nc1cc(C(C)(C)C)nn1-c1ccc(C)cc1C)C(=O)Nc1ccccc1Br,5,11
Cc1cc(CSCC(=O)NC2CCCCCCC2)on1,6,2
O=C(CSc1nnnn1C1CC1)c1ccc2c(c1)OCO2,-1,3
Cc1ccc(-n2ccnc2SCC(=O)NCC(=O)Nc2ccc(Br)cc2C)cc1C,-4,-3
Cc1cccc(-n2ncc3c(=O)n4c(nc32)SCC4CC(=O)Nc2nccs2)c1 (stereo not given),-1,-1
CCCC(=O)OCC(O)CN(Cc1ccccc1)Cc1ccc(F)cc1 (stereo not given),17,30
N#CC1(C#N)C(c2ccco2)NC23CCCCC2C1(C#N)C(=O)N3 (stereo not given),2,-2
CCc1ccc(NC(=O)c2sc3nc4c(cc3c2N)C(=O)CC(C)(C)C4)cc1,-2,-1
COc1ccc2cc(S(=O)(=O)N3CCN(C)CC3)ccc2c1,1,4
C=Cc1ccc(Cn2c(C)c(C(=O)NCc3ccccn3)sc2=O)cc1,9,4
COC(=O)C1=C(C)NC(=O)NC1c1ccc(OC(=O)c2cccs2)c(OC)c1 (stereo not given),-4,-8
CC(C)CC1NC2(CCN(C(=O)C(C)C)CC2)N(Cc2ccccc2)C1=O (stereo not given),14,8
COCCN(Cc1csc(COc2cccc3ccccc23)n1)C(=O)c1cccc(OC)c1,6,7
Cn1c(=O)[nH]c(=O)c2c1nc(N1CCN(Cc3ccc(F)cc3)CC1)n2Cc1cccc2ccccc12,-5,-9
CCCCCc1ccc(C(=O)Nc2ccc(N(C)C)c(C(=O)NCCC)c2)cc1,-5,-3
C=CCc1c(C)nc2c(-c3ccc(Cl)cc3)c(C)[nH]n2c1=O,-18,-24
Cn1ccc(CC(=O)N2CCC(C(=O)Nc3cccc(-c4ccco4)c3)CC2)c1,3,0
Cc1ccc(-n2ncc3c(C)nn(Cc4ccccc4F)c(=O)c32)cc1C,9,5
Cc1noc(C)c1C1CCCN1Cc1cccn1-c1ccccn1 (stereo not given),7,5
CC(=O)Nc1ccc(-c2cn(CC3CC(=O)N(C4CCCC4)C3)nn2)cc1 (stereo not given),14,11
Cc1cc(CNc2ccc(-c3nc(-c4ccccc4F)no3)cn2)no1,9,10
Cc1noc(C)c1Cn1c(C)c(C(=O)NCc2ccc(C#N)cc2)sc1=O,8,4
CC(Oc1cccc(C(C)C)c1)C(=O)N1CCOCC1C#N (stereo not given),8,6
CCOc1ccnc2c1c(=O)n(CC#N)c(=O)n2C,1,-3
COc1ccc(CCNC(=O)c2ccccc2N2CCC(NC(=O)c3ccccc3OC)CC2)cc1,16,11
O=C(c1ccc2ccccc2n1)N(Cc1ccccc1)Cc1ccc2c(c1)OCO2,20,13
CCn1c(=O)n(Cc2ccc(C)cc2)c2ccccc21,-1,-4
COc1cccc(CN2CCN(c3cccc(C(C)C)n3)CC2)c1F,4,3
Cc1cc(=O)[nH]c(-n2nc(C)cc2N)n1,1,-1
O=C(NCc1nnc(SCc2ccccc2)n1-c1cc(Cl)ccc1Cl)c1cccc(C(F)(F)F)c1,-5,-2
COc1ccc(Oc2ncccc2NC(=O)NCC2CCOC2)cc1 (stereo not given),0,4
CCNC(=O)Nc1ccc(N(C)C)c(CN(CC2CC2)C(=O)COC)c1,22,20
Cc1ccc(-c2nn3c4ccc(NC(=O)Cn5ccnc5)cc4nc3c3ccccc23)cc1,-15,-23
Cc1ccc(Cc2nsc(N3CCC(CNC(=O)c4cc([N+](=O)[O-])cc([N+](=O)[O-])c4)CC3)n2)cc1,-9,0
O=C(Nc1cccs1)N1CCC(c2nnc(C3CC3)s2)CC1,-5,-3
COC(=O)Nc1ccc(CNC(=O)CS(=O)(=O)c2ccc(Cl)cc2)cc1,8,5
CCC(C)n1c(SCC(=O)N(C)Cc2ccco2)nc2ccccc2c1=O (stereo not given),-2,9
CC(C)Cc1cc(C(=O)N2CCC(Oc3ncccn3)CC2)n[nH]1,0,2
CC1CCc2c(sc(NC(=O)c3ccc([N+](=O)[O-])s3)c2C(N)=O)C1 (stereo not given),9,7
O=C(CCCc1cn(S(=O)(=O)c2cccs2)c2ccccc12)NC1CCOC1=O (stereo not given),1,-2
Cc1ccc(-c2[nH]ncc2CN2CCN(c3ccccn3)CC2)cc1C,1,0
Cc1nc(C(C)N(C)C(=O)c2cc(-c3ccccc3O)n[nH]2)c(C)s1 (stereo not given),5,1
CC(C)(C)c1ccc(S(=O)(=O)NC(=O)C2(C)CCN2C(=O)C(C)(C)c2ccccc2)cc1 (stereo not given),3,2
O=C(NCCC(=O)N1CCC(C(=O)N2CCCCC2)CC1)C1CCN(c2nccc(C(F)(F)F)n2)CC1,-1,16
CCC(=O)Nc1ccccc1C(=O)C(=O)N1CCN2CCN(C)C(=O)C2C1 (stereo not given),6,3
Cc1[nH]n(C(C)(C)C)c(=O)c1Sc1ccc(Cl)cc1,19,9
O=C(NCc1nc2ccc(F)cc2[nH]1)C1CCCCC1,-3,25
CCCCN(CCC(=O)O)c1nc(Cc2cccc(OC)c2)ns1,36,28
CN1C(=CC(=O)COC(=O)COc2cccc(C(F)(F)F)c2)C(C)(C)c2ccccc21,-5,-7
O=C(NCCN1CCCCC1)c1ccc(SC(F)(F)F)cc1,-8,-12

Exported field by field: 3 of the compounds above.
> CC(C)(C)c1ccc(S(=O)(=O)NC(=O)C2(C)CCN2C(=O)C(C)(C)c2ccccc2)cc1 (stereo not given)
  NPYLR7 agonist = 3 | NPYLR7 agonist max-min = 2
> O=C(NCCC(=O)N1CCC(C(=O)N2CCCCC2)CC1)C1CCN(c2nccc(C(F)(F)F)n2)CC1
  NPYLR7 agonist = -1 | NPYLR7 agonist max-min = 16
> CCC(=O)Nc1ccccc1C(=O)C(=O)N1CCN2CCN(C)C(=O)C2C1 (stereo not given)
  NPYLR7 agonist = 6 | NPYLR7 agonist max-min = 3

Continuation:
Values run as follows: NPYLR7 agonist, NPYLR7 agonist max-min
> COCc1cc(CNC(=O)c2cccc3c2OCC3)[nH]n1
 : 21, 13
> Clc1ccc2nc(Nc3ccc4c(c3)OCCO4)c3nncn3c2c1
 : 12, 7
> Cc1cc(C(=O)CSc2ncnc3sccc23)c(C)n1C
 : -3, 3
> O=C(OC1CCOC1=O)C1CCN(C2=NS(=O)(=O)c3ccccc32)CC1 (stereo not given)
 : 1, 7
> CCc1c(C)c2c(C)nn(-c3ccccc3)c2[nH]c1=O
 : 2, 2
> O=C(c1ccccc1-c1ncc[nH]1)N1C[C@@H]2C3CCC(CC3)[C@@H]2C1
 : 0, -3
> COc1ccc(CNC(C)c2cnn(-c3ccc(F)cc3F)c2C)c(F)c1 (stereo not given)
 : -2, -6
> Cc1ccc2[nH]nc(C(=O)N3CCCC4(C3)C(=O)N(C)c3ccccc34)c2c1 (stereo not given)
 : -2, -2
> C[C@H](NC(=O)OCc1ccccc1)C(=O)N1CCCC1c1ccncc1 (stereo not given in full)
 : -6, -14
> CCOC(=O)Cn1c(=O)c2c(nc3n(-c4ccccc4F)c(C)cn23)n(C)c1=O
 : -11, -10
> CN(C(=O)Cn1cnc([N+](=O)[O-])n1)C1CCCCC1
 : -7, -15
> NCCCCCCNC(CC(=O)Nc1ccccc1)C(=O)O (stereo not given)
 : -4, -4
> O=C(NCCCNC(=O)[C@H]1CCCN1S(=O)(=O)c1ccc(Br)cc1)c1ccccc1
 : -2, 0
> COCCCNC(=O)c1csc(CSc2nnc(-c3ccncc3)n2-c2cccc(C(F)(F)F)c2)n1
 : 13, 13
> COc1ccc(OC)c(NC(=O)C2=C(C)N(C3CC3)C(=S)NC2c2cc3ccccc3[nH]c2=O)c1 (stereo not given)
 : 2, 8

Copied from above for reference:
Values run as follows: NPYLR7 agonist, NPYLR7 agonist max-min
> COCc1cc(CNC(=O)c2cccc3c2OCC3)[nH]n1
 : 21, 13
> Clc1ccc2nc(Nc3ccc4c(c3)OCCO4)c3nncn3c2c1
 : 12, 7
> Cc1cc(C(=O)CSc2ncnc3sccc23)c(C)n1C
 : -3, 3
> O=C(OC1CCOC1=O)C1CCN(C2=NS(=O)(=O)c3ccccc32)CC1 (stereo not given)
 : 1, 7
> CCc1c(C)c2c(C)nn(-c3ccccc3)c2[nH]c1=O
 : 2, 2
> O=C(c1ccccc1-c1ncc[nH]1)N1C[C@@H]2C3CCC(CC3)[C@@H]2C1
 : 0, -3
> COc1ccc(CNC(C)c2cnn(-c3ccc(F)cc3F)c2C)c(F)c1 (stereo not given)
 : -2, -6

The results go on.
Values run as follows: NPYLR7 agonist, NPYLR7 agonist max-min
> CC(c1ccccc1)N1C(=O)CSC1=S (stereo not given)
 : -8, 8
> CC1(C)CC(CCNC(=O)C2(N)CC2)(c2ccccc2)CCO1 (stereo not given)
 : 0, -24
> Cc1cc(-n2c(C)nc3ccccc3c2=O)ccc1NC(=O)C(C)C
 : -3, -5
> CCOC(=O)C1=C(CCl)OC(=N)C(C#N)C1c1ccccc1F (stereo not given)
 : -7, -12
> COc1cccc(-c2noc(CCN(Cc3ccccc3)CC(O)COCC(C)C)n2)c1 (stereo not given)
 : 24, 25
> Cc1cc(C)c(CNC2CCCc3c2cnn3-c2ccccn2)c(-n2cccn2)c1 (stereo not given)
 : 1, -2
> O=C(NOC1CCCCO1)C12CC3CC(CC(C3)C1)C2 (stereo not given)
 : 13, 18
> Cc1ccsc1C(=O)N1CCC1(C)C(=O)NS(=O)(=O)c1cccc(Cl)c1 (stereo not given)
 : 4, 3
> Cc1ccc(C)c(NCN2C(=O)C3C4C=CC(C4)C3C2=O)c1 (stereo not given)
 : -2, -2
> CCOC(=O)C1CCCN(C(=O)CC2(c3cccc(C(F)(F)F)c3)CC(=O)N(CC)C2=O)C1 (stereo not given)
 : 24, 8
> COc1ccc(C2(C(=O)Nc3nc(C)c(C)s3)CCCCC2)cc1
 : 2, 3
> COC(=O)Cn1c(C)c(C)n2c3c(=O)n(C)c(=O)n(C)c3nc12
 : -1, 17
> CCOC(=O)CCCC(=O)N1CCN(c2ccc(NC(=O)COC)cn2)CC1
 : 25, 14
> O=C(NCCc1ccc(Cl)cc1Cl)c1ccc(-c2ccc3c(c2)OCCO3)s1
 : -1, -6
> O=C(NC(c1ccccc1)c1ccsc1)C1CCN(Cc2ccc(Cl)c(Cl)c2)CC1 (stereo not given)
 : 17, 3
> Cc1cn2c3c(=O)n(Cc4ccccc4)c(=O)n(C)c3nc2n1Cc1ccccc1
 : 3, 2
> Cc1ccc(NC(=O)CC(=O)N2CCCC2c2c(C)noc2C)c(C)c1 (stereo not given)
 : 2, -2
> CCCCC(O)(CCCC)C(=O)NN(C(=O)COc1ccccc1)c1ccccc1
 : -8, -13
> CCOc1ccc(-n2nnc3c(N4CCN(C(=O)COc5ccccc5)CC4)ncnc32)cc1
 : -2, -6
> Cc1ccc(N2C(=O)C(=O)N(c3ccc(C)cc3)C2=S)cc1
 : -5, -7
> COc1cc(NC(=O)Nc2nccn(-c3cccc(Cl)c3)c2=O)cc(OC)c1
 : 0, -3
> Cc1cc(NC(=O)CN(C)CC(=O)Nc2c(Cl)cccc2Cl)n(-c2ccc(F)cc2)n1
 : 0, 5
> O=C(C1C[C@H]1c1ccccc1)N1CCC2(CC1)SCCN2C(=O)c1ccccc1F (stereo not given in full)
 : 11, 15
> CC(C)C(Cn1ccnc1)NC(=O)c1ccccc1N1CCOCC1 (stereo not given)
 : 7, 4
> COc1ccc(CN(Cc2ccco2)C(=O)C(OC(C)=O)c2ccccc2)c2ccccc12 (stereo not given)
 : -17, -23
> COc1ccc(Cl)cc1NC(=O)c1cnn2c1NC(c1ccco1)CC2C(F)(F)F (stereo not given)
 : 1, -6
> C[C@@]12C(=O)Nc3ccccc3[C@@H]1[C@@H](C(N)=O)CN2C(=O)OCc1ccccc1
 : 33, 31
> O=S(=O)(Nc1cccc(C2OCC(COc3ccc(Cl)cc3)O2)c1)c1ccccc1 (stereo not given)
 : -6, -7
> COc1ccc(-c2nc(OC)nn2-c2cccc(NC(=O)c3cccc([N+](=O)[O-])c3)c2)cc1
 : 5, 10
> CCOC(=O)C1CCN(C(=O)C(c2ccccc2)c2ccccc2)CC1
 : 0, 12
> CCOC(=O)c1c(NC(=O)C2CC2)sc2c1CCC(c1ccccc1)C2 (stereo not given)
 : 5, 4
> Cc1ccc(O)c(CN2CCN(c3ncc(Cl)cn3)CC2)n1
 : 6, 7
> CCOC(=O)N1CCN(C(=O)CC(c2ccc3c(c2)OCO3)c2c[nH]c3ccccc23)CC1 (stereo not given)
 : 8, 18
> CCOc1ccc(OCC)c(NC(=O)c2nnn(CC(=O)Nc3c(C)cc(C)cc3C)c2N)c1
 : -9, -14
> COCCNC(=O)[C@@]1(OCc2cccc(F)c2)CC(OCc2c(F)cccc2F)[C@@H]2OC(C)(C)O[C@@H]2C1 (stereo not given in full)
 : 17, 4
> CCCCn1c(C)cn2c3c(=O)n(CC(C)=O)c(=O)n(C)c3nc12
 : 2, -3
> CCc1nc2c(OCC(=O)N3CCOCC3)cccn2c1N(C)C(=O)COc1ccccc1
 : 3, -9
> NC(=O)CN1CCN(S(=O)(=O)c2ccc3c(c2)OCCO3)CC1
 : 3, -2
> Cc1ccc(-c2nccn2CC(c2ccccn2)N2CCOCC2)c(C)c1F (stereo not given)
 : 5, -3
> COc1cc(OC)c(NC(=O)NC(C)c2cccs2)cc1Cl (stereo not given)
 : 5, 1
> COc1cccc(CC2=NOC(C(=O)N3CCC(Oc4ccccc4OC)CC3)C2)c1 (stereo not given)
 : 10, -4
> CN(C)CCCO[C@@H]1[C@H]2OC(C)(C)O[C@H]2O[C@@H]1[C@H](O)CO
 : -1, -8
> CC(=O)c1c(C)nc2n(Cc3ccccc3)c3ccccc3n12
 : 4, 4
> CCNC(=O)c1ccccc1-c1cccc2cnccc12
 : -8, -13
> CCOC(=O)CNC(=O)NCc1cccnc1N1CCCCCCC1
 : 4, 0
